Bfl-1 A1 inh: inhibitors of the anti-apoptotic protein A1, read as caspase activation; caspase activation, % (test concentration not listed); AID 2462; MEF A1-2A-BIM cells, Caspase-Glo 3/7 luminescence, 3 h; percent of clofoctol response, vehicle zero; hit rate 0.066% among 330,000;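 active = over half of replicate activation scores above 10%, or exactly half above 10 with the replicate mean above 10; inconclusive = replicate mean below 10 yet half the replicates above 10; inactive = over half of replicates below 10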;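 note: wells of about 30 µL received 50 nL stock; many hits fall short of the cut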
rRNA inh HTS: inhibitors of bacterial rRNA selective over humanized ribosomes. E. coli WT GFP vs humanized-ribosome RFP mutants, fluorescence, 24 h; stronger effect = lower value; DMSO median 0, no signal -100. GFP signal change (wild-type ribosome), % (concentration not given with the values). hit rate 1.6% among 350,000. AID 720706;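 active = significant combined selectivity score with lowered wild-type GFP, culture density cut under 30%, mutant RFP and density less affected; inactive = any of these conditions unmet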; note: one replicate is shown; some compounds called inactive have numbers as strong as hits
FGF22 binding: FGF22 (human) thermal shift binding | Q9HCT0 | recombinant FGF22 thermal shift, SYPRO orange fluorescence; percent of sucrose octasulfate shift, DMSO zero | calls only at 9.99 µM | hit rate 1.5% among 340,000 | AID 651658;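 active = melting point raised past a set limit in the mean and every replicate; inconclusive = no clear call; three in four hits are not shown here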
Target sequence (Q9HCT0 whole entry, looked up): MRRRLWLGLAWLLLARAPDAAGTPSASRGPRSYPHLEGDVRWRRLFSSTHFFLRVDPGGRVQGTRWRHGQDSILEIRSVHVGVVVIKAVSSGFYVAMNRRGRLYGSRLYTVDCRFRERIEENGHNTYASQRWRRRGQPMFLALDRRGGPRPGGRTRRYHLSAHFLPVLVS
T cruzi repl: blocks replication of Trypanosoma cruzi; T. cruzi beta-gal in NIH3T3, luminescence, 90 h; hit rate 1.4% among 300,000; inhibition, % (test concentration not listed);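 active = mean inhibition across valid replicates above about 55%, limit read from the data; inconclusive = mean below that limit but half or more replicates reach it; inactive = mean below it, under half of replicates reach it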;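 note: signal also drops with host cell toxicity which is not excluded here; 0% = plate median of DMSO wells and 100% = zero luminescence signal; higher percent means less beta-gal luminescence so fewer parasites; stock transfer was 50 nL into about 50 µL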
Beta cell apopt: blocks beta cell apoptosis; INS-1E cytokine-induced death, ATP luminescence, 48 h; percent of positive-control rescue, neutral wells zero; protection from apoptosis, % (test concentration not listed); hit rate 0.8% among 300,000; AID 435005;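 active = all replicates at 75% or more, or half of them and the mean; inconclusive = half reach 75% but not the mean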;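 note: 0% = cytokine-treated negative control wells and 100% = positive control rescue; higher means more ATP so stronger rescue from cytokine killing; wells of about 40 µL received 100 nL stock; the first replicate is given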
MLL AF4-AF9 inh: blocks AF4 peptide binding to human AF9; P42568; AlphaScreen, biotin-AF4 peptide binding to FLAG-AF9; inhibition, % at 10 µM; hit rate 0.47% among 350,000;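 active = every replicate reaching a set inhibition limit, whatever the replicate mean, cut at about 25% in these data; inconclusive = mean inhibition reaches that limit but some replicates miss it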;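 note: 0% = plate neutral control median and 100% = total signal loss; the record names both 10 and 1 µM as test concentration; the first replicate is given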
Target sequence (P42568 whole entry, looked up): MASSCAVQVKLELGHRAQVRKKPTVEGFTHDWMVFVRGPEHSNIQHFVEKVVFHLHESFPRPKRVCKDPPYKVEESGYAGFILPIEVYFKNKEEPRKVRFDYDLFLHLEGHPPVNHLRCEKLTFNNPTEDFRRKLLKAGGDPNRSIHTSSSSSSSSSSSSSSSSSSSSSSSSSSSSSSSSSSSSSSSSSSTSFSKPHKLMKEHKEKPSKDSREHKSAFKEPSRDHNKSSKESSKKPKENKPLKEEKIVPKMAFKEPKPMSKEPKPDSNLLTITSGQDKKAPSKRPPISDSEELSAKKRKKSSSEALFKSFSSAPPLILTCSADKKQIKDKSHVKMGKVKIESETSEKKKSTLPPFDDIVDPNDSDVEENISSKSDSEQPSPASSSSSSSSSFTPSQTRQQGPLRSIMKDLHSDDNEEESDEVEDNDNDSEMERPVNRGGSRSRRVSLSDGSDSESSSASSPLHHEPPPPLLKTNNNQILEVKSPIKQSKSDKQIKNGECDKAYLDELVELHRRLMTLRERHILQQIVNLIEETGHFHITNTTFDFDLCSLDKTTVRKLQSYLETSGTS
UCH37 inh: inhibitors of human deubiquitinating enzyme UCH37 | purified proteasome/UCH37, Ub-AMC cleavage fluorescence | hit rate 0.33% among 330,000 | inhibition, % (test concentration not listed) | Q9Y5K5;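 active = mean of two replicates above 20%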;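 note: 0% = compound-free wells with enzyme and 100% = wells lacking proteasome; stock transfer was 100 nL into about 20 µL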
Target sequence (Q9Y5K5 whole entry, looked up): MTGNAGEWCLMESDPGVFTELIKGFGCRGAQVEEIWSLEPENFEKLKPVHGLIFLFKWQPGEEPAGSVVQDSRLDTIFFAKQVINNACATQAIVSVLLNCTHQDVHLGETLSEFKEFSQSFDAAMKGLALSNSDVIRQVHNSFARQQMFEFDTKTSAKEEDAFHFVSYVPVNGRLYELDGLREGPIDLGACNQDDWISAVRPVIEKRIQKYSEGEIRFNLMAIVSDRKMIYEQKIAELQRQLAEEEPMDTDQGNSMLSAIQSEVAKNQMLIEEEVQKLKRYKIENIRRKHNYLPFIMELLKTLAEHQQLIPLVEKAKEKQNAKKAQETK
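System: Proteasome-associated human UCH37 deubiquitinase; Input: 0.15 nM proteasome in added enzyme buffer; Also added: Ub-AMC substrate from 1 µM stock; Incubation: 30 min compound-proteasome preincubation then 25 min substrate reaction, room temperature; Detection: fluorescence, ex 355 nm, em 460 nm; Read-out: % inhibition of Ub-AMC cleavage fluorescence; Benchmarks: no-proteasome and no-compound wells.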
Ecoli growth: inhibitors of Escherichia coli growth. hit rate 0.21% among 330,000. AID 1053175. OD600, 23 h; stronger effect = lower value. OD600 absorbance (no concentration beside the values);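 active = OD600 absorbance below the run mean of sample wells minus 3.6 SD, in any replicate, cut at about 0.56 in these data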;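 note: stock transfer was 300 nL into about 60 µL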
rRNA inh HTS OD600: also measured in rRNA inh HTS; calls as there; OD600 change, %; measured here: OD600 growth;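 optical density of the mix in the first replicate; 0 = DMSO median and -100 = no signal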
rRNA inh HTS RFP: recorded beside rRNA inh HTS, whose call it bears; RFP signal change, %; measured here: RFP humanized mutant strains;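 first replicate; 0 = DMSO median and -100 = no signal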
* hit, by the source's call; i = inactive; ? = inconclusive; nt = not tested or not shown; + = active, no number.

SMILES | Bfl-1 A1 inh | rRNA inh HTS | rRNA inh HTS OD600 | rRNA inh HTS RFP | FGF22 binding | T cruzi repl | Beta cell apopt | MLL AF4-AF9 inh | UCH37 inh | Ecoli growth
Oc1ccc(N=Cc2sc3ccccc3c2Cl)cc1 | -1.7 | 6 | 0 | 17 | i | 4 | 3 | ? | 4.6 | 0.61
Clc1ccsc1-c1csc(-c2cccnc2)n1 | -3.7 | nt | nt | nt | nt | -20 | 1 | nt | -2.7 | 0.73
CCN(CC)CCOc1nnc(-c2ccc(OC)cc2)c2ccccc12 | 0.0 | 11 | 16 | 0.1 | i | 22 | -12 | 2.5 | 2.9 | 0.61
CCN(CC)C(=O)c1cc(-c2ccc3c(c2)OCO3)on1 | -4.8 | 8 | 9 | -1.8 | i | 2 | -5 | -7.5 | 1.8 | 0.68
CC(C)N(C(=S)Nc1cc(S(=O)(=O)N2CCOCC2)ccc1Cl)c1ccccc1 | -0.3 | nt | nt | nt | nt | -12 | -6 | nt | 7.9 | 0.69
COC(=O)c1cnn(-c2nc(-c3ccccc3)cs2)c1N | -2.3 | 12 | 18 | 6.3 | i | 7 | 3 | -1.9 | 0.5 | 0.65
O=C(Nc1cccc(NC(=O)c2ccccc2[N+](=O)[O-])n1)c1ccccc1[N+](=O)[O-] | -1.3 | nt | nt | nt | nt | -14 | 4 | nt | 4.9 | 0.74
CCn1c(SCC(=O)Nc2ccccc2)nnc1C1CCCCC1 | -0.2 | nt | nt | nt | nt | -2 | -7 | nt | 2.1 | 0.69
O=C1C(C=NCc2ccco2)=C(O)c2ccccc21 | -1.5 | nt | nt | nt | nt | -4 | -11 | nt | 3.3 | 0.72
COc1cccc(CNc2ncn[nH]2)c1OCc1ccc(F)cc1 | -0.3 | 3 | -3 | -2.7 | i | 4 | 0 | -1.6 | 0.0 | 0.71
Cc1nnc(SC(C)C(=O)NCC2CCCO2)s1 (centres undefined) | 0.3 | 5 | 6 | -3.0 | i | nt | -3 | 3.4 | 4.6 | 0.67
CCn1c(-c2sc(-c3ccccc3)nc2C)n[nH]c1=S | 0.7 | -30* | -20* | -1.4* | i | -2 | -3 | -3.0 | -119 | 0.7
O=C(CNC(=O)c1ccccc1F)OCC(=O)c1ccc(Cl)s1 | -0.2 | 2 | 14 | -3.4 | i | 1 | -2 | -1.0 | 1.5 | 0.7
CS(=O)(=O)c1cccc(C(=O)OCCCC(=O)c2ccccc2)c1 | -0.3 | -7 | -8 | 5.8 | i | nt | -3 | -1.4 | -2.6 | 0.73
CC(=O)c1ccc(N2CCN(C(=O)c3nn(C)c4c3CS(=O)(=O)c3ccccc3-4)CC2)cc1 | 0.2 | 5 | 7 | -3.4 | i | 2 | 9 | -1.6 | 4.6 | 0.67
CN1CCc2nc3sc(C(=O)NCc4ccccc4)c(N)c3cc2C1 | -0.1 | -4 | -11 | -1.8 | i | -3 | -2 | 4.7 | 1.5 | 0.69
CC1=CC(C)C(COC(=O)CN2CCCCC2)C(C)C1 (centres undefined) | -0.2 | 6 | 8 | -1.6 | i | -2 | -2 | 2.2 | 3.2 | 0.7
COCCNC(=O)C(=O)Nc1cccc(Br)c1 | -0.3 | 6 | -2 | -0.1 | i | -4 | -3 | -7.5 | 0.3 | 0.65
O=C(CSc1nnnn1C1CCCCC1)N1CCc2ccccc21 | 0.3 | 15 | 9 | -1.7 | i | -8 | 0 | -58 | 1.3 | 0.71
COC(=O)c1sccc1NC(=O)c1ccccc1F | -0.7 | 9 | 12 | 0.4 | i | -13 | 2 | -2.4 | 0.7 | 0.69
COc1nc(NC(C)(C)C)nc(Oc2ccc(=O)n(C)n2)n1 | nt | -10 | 5 | -1.6 | i | -10 | -5 | -3.4 | 2.0 | 0.79
COc1ccc(C(=O)Nc2cc(C)nn2-c2cccc(F)c2)cc1 | 0.1 | -2 | -1 | -1.7 | i | -5 | 1 | -0.9 | 3.5 | 0.65
COC(=O)c1csc(S(=O)(=O)N2CCOCC2)c1OC | 1.3 | 3 | 8 | -0.2 | i | -2 | 0 | -4.3 | 2.0 | 0.74
O=S(=O)(NCCSc1ccc(Cl)cc1)c1ccc2c(c1)OCCO2 | -1.0 | nt | nt | nt | nt | -6 | 0 | nt | 5.6 | 0.72
O=C(Nc1ccc(Cl)cc1C(=O)O)c1ccc2c(c1)C(=O)N(Cc1ccco1)C2=O | -0.1 | nt | nt | nt | nt | 0 | -7 | nt | 7.7 | 0.69
O=S(=O)(c1ccc2c(c1)N(Cc1ccc(Cl)cc1)C1CCCN21)N1CCOCC1 (centres undefined) | 0.1 | nt | nt | nt | nt | 9 | nt | nt | 1.4 | 0.74
CCN(CC)S(=O)(=O)c1ccc(N2CCCC2)c(C(=O)OCC(=O)N2CCCC2)c1 | 0.5 | -3 | -6 | -0.1 | i | 9 | -1 | -1.1 | 3.2 | 0.66
CCCN1C(=O)C2C(C(=O)Nc3cccc(OC)c3)C3C=CC2(O3)C1C(=O)NC1CCCCC1 (centres undefined) | -0.4 | nt | nt | nt | nt | -22 | -1 | nt | -3.8 | 0.69
O=C(c1cccs1)N1CCN(S(=O)(=O)N2CCCCC2)CC1 | 0.2 | nt | nt | nt | nt | nt | -4 | nt | 4.8 | 0.79
CCOCCCNC(=O)c1cc(C)nn1-c1ccccc1 | 1.0 | 4 | 14 | 0.8 | i | -11 | nt | 1.3 | 7.7 | 0.7
O=C(CCNS(=O)(=O)c1ccc(Cl)cc1)OCC(=O)N1CCN(C(=O)c2ccco2)CC1 | 0.6 | 9 | 11 | -0.5 | + | -4 | 0 | 2.7 | 0.1 | 0.71
Cc1cnc(C(=O)OCC(=O)c2c(N)n(CC(C)C)c(=O)n(C)c2=O)cn1 | 0.9 | -1 | 1 | -2.4 | i | 1 | 8 | -12 | 1.7 | 0.69
Cc1ccn2c(NC(C)(C)C)c(-c3cccs3)nc2c1 | -0.8 | -13 | -7 | 2.1 | i | 12 | -5 | 5.5 | -75 | 0.7
CN(Cc1ccco1)C(=O)Cn1ncc2c([nH]c3ccccc32)c1=O | 2.6 | -1 | -1 | 0.2 | i | -9 | -4 | -0.5 | -2.7 | 0.72
CCOC(=O)Cc1csc(NC(=S)NC(=O)c2ccccc2Br)n1 | -0.8 | -27 | -20 | -10 | i | 8 | -1 | -9.2 | 5.6 | 0.71
C=C(C)Cn1c(SCC(=O)N/N=C/c2ccccc2OCC(=O)O)nnc1-c1ccc(Br)cc1 | 1.7 | -2 | -2 | -2.2 | i | -7 | 1 | -17 | nt | nt
CSc1ncc(C(=O)Nc2cccc(C)c2C)c(C)n1 | 0.1 | 1 | 2 | 0.1 | i | -8 | 2 | 0.4 | -4.4 | 0.67
CC1=CC(C)(C)Nc2ccc(Cc3ccc4c(c3)C(C)=CC(C)(C)N4)cc21 | 1.4 | 5 | 14 | -1.1 | i | 40 | 4 | ? | nt | nt
COc1cc(S(=O)(=O)N2CCC(C(N)=O)CC2)c(C)cc1C | 0.6 | nt | nt | nt | nt | 9 | 0 | nt | 2.4 | 0.68
Cc1ccc(C(=O)N2CCN(c3ccc(NC(=O)Cc4ccccc4)cc3)CC2)cc1 | -0.1 | -2 | -3 | 0.4 | i | 3 | 2 | 1.0 | 2.5 | 0.64

2 entries from above, comma-delimited.
Structure,Bfl-1 A1 inh,rRNA inh HTS,rRNA inh HTS OD600,rRNA inh HTS RFP,FGF22 binding,T cruzi repl,Beta cell apopt,MLL AF4-AF9 inh,UCH37 inh,Ecoli growth
CCOC(=O)Cc1csc(NC(=S)NC(=O)c2ccccc2Br)n1,-0.8,-27,-20,-10,i,8,-1,-9.2,5.6,0.71
C=C(C)Cn1c(SCC(=O)N/N=C/c2ccccc2OCC(=O)O)nnc1-c1ccc(Br)cc1,1.7,-2,-2,-2.2,i,-7,1,-17,nt,nt

(list continues)
SMILES | Bfl-1 A1 inh | rRNA inh HTS | rRNA inh HTS OD600 | rRNA inh HTS RFP | FGF22 binding | T cruzi repl | Beta cell apopt | MLL AF4-AF9 inh | UCH37 inh | Ecoli growth
NNC(=O)c1ccc(Oc2cc(Cl)cc(Cl)c2)o1 | -0.3 | -1 | -2 | -1.6 | i | 11 | nt | -8.0 | 1.7 | 0.64
COc1ccccc1CC(=O)Nc1cccc(C(=O)Nc2nccs2)c1 | 0.8 | 14 | -4 | -0.6 | i | 18 | -1 | -0.8 | 1.9 | 0.65
COCCOC(=O)C1=C(C)OC(N)=C(C#N)C1c1ccc2c(c1)OCO2 (centres undefined) | 0.3 | nt | nt | nt | nt | -15 | -4 | nt | -1.5 | 0.73
Cc1ccc(NC(=O)CCN2C(=O)NC3(CCCC3)C2=O)cc1 | nt | -1 | 0 | -0.6 | i | nt | nt | -5.5 | 2.0 | 0.69
Cc1ccn2c(C(=O)NN=C3CCCCCCC3)c(C)nc2c1 | -0.2 | 6 | 5 | 3.5 | i | -6 | 1 | -1.4 | -0.3 | 0.71
O=C(O)C1(P(=O)(c2ccc(Cl)cc2)c2ccc(Cl)cc2)CC1 | -0.2 | 10 | 6 | 0.3 | i | -20 | 0 | -0.4 | nt | nt
Cc1ccc(OCCCC(=O)ON=C(N)c2ccccc2C)cc1 | -0.9 | nt | nt | nt | i | nt | 1 | -0.1 | 4.4 | 0.67
COc1ccc(C(=O)OCC(=O)NCCCc2ccccc2)c(OC)c1 | 0.7 | 0 | 3 | 6.2 | i | 13 | -6 | 1.0 | 1.5 | 0.64
COc1cc(-c2nc3c4ccccc4nc(=S)n3[nH]2)cc(OC)c1OC | -0.1 | 1 | 4 | -1.0 | i | -15 | 23 | -0.1 | 5.7 | 0.75
Cc1nnsc1-c1nnc(SCC(=O)c2ccc(F)cc2)n1C1CC1 | -0.2 | -1 | -16 | -5.2 | i | -10 | 5 | 5.8 | 1.9 | 0.67
CC(C)(C)NC(=O)CN(C(=O)C(=O)Nc1ccc2c(c1)OCCO2)C1CCCC1 | 0.3 | -1 | 3 | -3.1 | i | -14 | 1 | 4.4 | 1.8 | 0.66
COc1ccc(S(=O)(=O)N2CCN(C(=O)NC3CCCCC3)CC2)cc1OC | 0.6 | nt | nt | nt | nt | 4 | -6 | nt | 0.8 | 0.71
CN(C(=S)NC(=O)CCCOc1ccc(Cl)cc1Cl)c1ccccc1 | 0.5 | nt | nt | nt | nt | 32 | nt | nt | 4.5 | 0.67
CCOC(=O)C1=C(COC(=O)c2cccc(NC(C)=O)c2)NC(=O)NC1C (centres undefined) | 0.6 | 4 | 7 | 0.5 | i | -14 | -5 | -2.5 | -0.8 | 0.64
CCN(CC)S(=O)(=O)c1ccc(N(C)C)c(NC(=O)C2CCCC2)c1 | 0.6 | 4 | -3 | 1.5 | i | 1 | -5 | -3.2 | 5.4 | 0.75
CC1=Nc2cc(C(=O)NCCCN3CCN(C)CC3)ccc2Sc2ccc(C)cc21 | -0.4 | 10 | 8 | 2.3 | i | 21 | nt | 27* | 6.6 | 0.73

The list is partial; the hit share may differ from the screen's.
